Bioassay records as filed in PubChem.
BmaI1: BmaI1 acyl-homoserine lactone synthase inhibition – biochemical, fluorescence intensity, with counterscreen (AID 720554); BmaI1 enzyme assay, fluorescence intensity; stronger effect = higher value; test concentration not given here; a few actives read low; strong numbers were not always called active; inhibition, %; actives 0.4% (n = 12,000);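 active = both replicates within 2 robust z-scores of the inhibited control and a quiet counterscreen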;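 also: 0% = uninhibited enzyme and 100% = inhibited control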
BmaI1 counterscreen: also measured in BmaI1; calls as there; inhibition, %; measured here: counterscreen; design of the counterscreen not given here;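 first of two replicates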
* = called active by the depositor; & = joins results of further samples. These rows are one share of the data, so the mix of outcomes need not match the whole.

SMILES	BmaI1	BmaI1 counterscreen
CC(=O)NS(=O)(=O)c1ccc(NC(=O)c2cn3ccccc3n2)cc1	16	11
CCOc1ccc2c(c1)C(C)=CC(C)(C)N2C(=O)CSc1nnc(C2CC2)n1C	12	12
Cc1ccc(CN(C)C(=O)c2cccc(S(=O)(=O)N(C)C)c2)o1	17	12
CC(C)n1ncc2c1N=C(c1ccco1)N(C)C2c1ccccc1 (configuration not stated)	17	8
CC(=O)N1CCN(C(=O)CSc2ncnc3ccccc23)CC1	11	-4
Cc1cccc(C)c1OCC(=O)Nc1ccc2c(c1)OCO2	24	2
N/C(Cc1nc2ccccc2[nH]1)=N\O	24	2
O=C(NC1=NCCS1)C1Cc2ccccc2CN1C(=O)c1ccco1 (configuration not stated)	6	8
CC(C)C1CCC(C(=O)N[C@H](Cc2ccccc2)C(=O)O)CC1 (some centres not stated)	-4	0
COc1cccc(C(=O)N2CCCc3ccccc32)c1	14	4
COc1ccc(OC)c(/C=c2\s/c(=C(/C#N)c3nnc4n3CCCCC4)n(-c3ccccc3)c2=O)c1	9	2
O=C1OCCC1Sc1nnc(Cc2cccs2)n1C1CCCCC1 (configuration not stated)	10	0
O=C(OCC(=O)N1CCCC1=O)c1ncc(Cl)c(Cl)c1Cl	16	7
CC(C)CC1NC(=O)N(Cc2cccc(Br)c2)C1=O (configuration not stated)	4	6
CSc1ccc(CN(C)CC(=O)NCc2ccccc2)cc1	14	13
Oc1ccccc1N1CCN(C(=S)NCCN2CCOCC2)CC1	88	28
COc1ccc(-c2csc(/C(C#N)=C(\O)CN3C(=O)c4ccccc4C3=O)n2)cc1OC	34	24
Cc1sc2ncnc(SC(C)C(=O)NC3(C#N)CCCCC3)c2c1C (configuration not stated)	0	4
O=C(COC(=O)Cn1[nH]c(=O)c2ccccc2c1=O)Nc1ccccc1C(=O)NC1CC1	17	6
CC(O)CNCC(=O)Nc1ccccc1Br (configuration not stated)	12	10
C=CCn1c(Sc2ccc(S(=O)(=O)N(CC)c3ccccc3)cn2)nnc1C1CCCCC1	12	3
O=C(NC(=S)NC1CC1)c1ccco1	-14	2
COc1ccc(C2CC(c3cccs3)=NN2C(=O)COC(=O)Cn2cnnn2)cc1OC (configuration not stated)	0	5
COc1ccc(CN(Cc2cccs2)C(=O)Cc2c(C)noc2C)cc1OC	8	-4
COC(=O)c1ccc(COc2ccccc2C(=O)c2cnn(-c3ccccc3)c2)o1	10	0
Cc1nn(-c2ccccc2)c(C)c1CN(C)C(=O)CCCn1c(=O)oc2ccccc21	20	-3
Cc1ccc(C(=O)NCc2ccccc2F)s1	0	4
CC1CCc2c(sc3ncnc(SCC#N)c23)C1 (configuration not stated)	-14	4
Oc1ccc(CNC2CCN(Cc3ccccc3)C2)cc1 (configuration not stated)	14	-8
O=C(C1Cc2ccccc2CN1S(=O)(=O)c1ccc2c(c1)OCCO2)N1CCCC1 (configuration not stated)	4	0
CC1=NN(c2ccccc2)C(=O)/C1=C\c1cn(CCC(=O)O)nc1-c1cc2ccccc2o1	56	10
CSC(=C(C#N)C#N)N1CCN(c2ccccc2)CC1	8	6
c1ccc2sc(-c3ccc(CNCCCn4ccnc4)o3)nc2c1	5	1
CN(C(=O)CSc1nnnn1C)C1CCCCC1	6	4
CC(Sc1nncn1-c1ccccc1)C(=O)Nc1ccccc1 (configuration not stated)	16	-1
Nc1cc(C(=O)OCC(=O)c2csc(N3CCCCC3)n2)ccc1Cl	18	4
Cc1cc(C(=O)C(C)OC(=O)c2ccc(S(=O)(=O)NCc3ccco3)cc2)c(C)n1-c1ccc(Cl)cc1 (configuration not stated)	4	6
Cc1ccc(N(CC#N)C(=O)Nc2ccc(Cl)cc2)cc1	8	-8
COc1cc(OC)cc(C(=O)N[C@H](C(=O)NCc2ccco2)C(C)C)c1	-4	-14
O=C(Cn1c(-c2cscn2)nc2ccccc21)OCCOc1ccc(Br)cc1	1	-4
CCCN1C(=O)c2ccccc2NC1c1cccc(O)c1O (configuration not stated)	52	22
CC(C)C(C)NC(=O)COc1nc2ccccc2nc1N(C)C1CCCCC1 (configuration not stated)	32	2
CCOc1ccc(-n2c(SCC(=O)N(C)C3(C#N)CCCCC3)nc3ccccc32)cc1	15	0
N#Cc1ccc(COC(=O)c2ccc3c(c2)OCCO3)cc1	6	-5
c1ccc(CN=C2NN=C(c3ccccc3)CS2)cc1	29	1
Cc1ccccc1Nc1nc(N)nc(CSCC(=O)N2CCc3ccccc32)n1	14	10
Cc1cccc(-c2nnc(SCc3nc4sc5c(c4c(=O)[nH]3)CCC(C)C5)n2C)c1 (configuration not stated)	20	12
C/C(=N\N=c1/sc2ccccc2n1C)c1ccc(S(=O)(=O)NCc2ccco2)cc1	14	12
Cc1csc(SCC(=O)c2ccc(S(=O)(=O)N3CCCCC3)cc2)n1	58	22
C[C@]12CC[C@@H]3c4ccc(O)cc4CC[C@H]3[C@@H]1CC[C@@H]2O	3	9
CN[C@H]1CC[C@@H](c2ccc(Cl)c(Cl)c2)c2ccccc21	6&4	2&20
COc1ccccc1-c1nnc(SCC(=O)c2cc(C)n(C)c2C)n1C	16	11
O=C(COC(=O)c1ccc(Cl)nc1)c1cc2c3c(c1)CC(=O)N3CCC2	6	9
CC1=CC(=O)C(C(=O)/C=C/c2ccc(N3CCCCC3)cc2)C(=O)O1 (configuration not stated)	44	-10
COC(=O)c1ccc(CSc2nc(C)nc3sc4c(c23)CCCC4)o1	-4	-8
Cc1cc(C(=O)N2CCc3ccccc3C2)c2ccccc2n1	6	10
Cc1cccc(N2CCN(C(C)c3nc4ccccc4c(=O)[nH]3)CC2)c1C (configuration not stated)	-12	-4
O=c1[nH]c(Cn2nnc(-c3ccccc3)n2)nc2ccccc12	7	4
CSc1cccc(NC(=O)c2ccc(=O)n(C)n2)c1	14	8
CC(=O)NCCc1ccc(-c2csc(N)n2)cc1	24	41

Additional entries:
SMILES	BmaI1	BmaI1 counterscreen
Cc1cc(C(=O)COc2ccc(NC(=O)c3ccco3)cc2)c(C)n1Cc1ccccc1	35	10
Cc1ccc(-c2nnn(CC(=O)c3ccc(Cl)s3)n2)cc1	12	-2
Cc1nn(C(C)(C)C)c2c1C(c1ccncc1)C1=C(CCCC1=O)N2 (configuration not stated)	-99	-72
O=C(Cc1n[nH]c(=O)c2ccccc12)OCc1nnc(-c2ccc(Cl)cc2)o1	13	6
CCC(C)NC(=O)CN1CCc2cc(-c3csc(C)n3)ccc21 (configuration not stated)	74	73
CCN(CC)S(=O)(=O)c1cccc(-c2nn(CN3CCN(c4ccc(O)cc4)CC3)c(=S)o2)c1	73	33
CC(C)C(NC(=O)Cc1ccc(S(=O)(=O)N2CCOCC2)s1)c1nc2ccccc2[nH]1 (configuration not stated)	12	-2
C[C@]12CCC(=O)C=C1CC[C@@H]1[C@@H]2C(=O)C[C@@]2(C)[C@H]1CC[C@]2(O)C(=O)CO	54	4
Cc1cc(C(=O)Cn2ncc(Cl)c(Cl)c2=O)c(C)n1Cc1ccco1	2	4
O=C(CSc1nnc(-c2cccs2)o1)Nc1cc(C(F)(F)F)ccc1N1CCOCC1	13	22
CC(C)C(NC(=O)c1ccco1)C(=O)N1CCC(Cc2ccccc2)CC1 (configuration not stated)	16	5
C=CCN(c1ccccc1)S(=O)(=O)c1cccc(C(=O)N2CCN(c3ncccn3)CC2)c1	8	0
NC(=O)NC(CC(=O)Nc1cccc(-c2nnc3n2CCCCC3)c1)c1ccccc1Cl (configuration not stated)	14	6
CN(C)C1(CNC(=O)Cc2n[nH]c(=O)c3ccccc23)CCCCC1	0	0
CCOC(=O)c1c(NC(=O)COC(=O)Cc2cn3ccsc3n2)sc(C)c1Cc1ccc2c(c1)OCO2	6	-6

Filtered by structure: the compounds so far with a COOH group (2)
SMILES	BmaI1	BmaI1 counterscreen
CC(C)C1CCC(C(=O)N[C@H](Cc2ccccc2)C(=O)O)CC1 (some centres not stated)	-4	0
CC1=NN(c2ccccc2)C(=O)/C1=C\c1cn(CCC(=O)O)nc1-c1cc2ccccc2o1	56	10

Other compounds.
SMILES	BmaI1	BmaI1 counterscreen
O=C(COC(=O)C1=COCCO1)Nc1ccc2[nH]c(=O)[nH]c2c1	21	12
CN(C)C1(CNC(=O)C2=NN(C3CCS(=O)(=O)C3)C(=O)CC2)CCCCC1 (configuration not stated)	30	2
CC1CCCCN1C(=O)COC(=O)c1n[nH]c2ccccc12 (configuration not stated)	6	8
N#CC1(NC(=O)COC(=O)C2CCN(C(=O)Nc3ccccc3)CC2)CCCCC1	18	20
CN(c1ccc(C(=O)O)cc1)S(C)(=O)=O	16	18
C=CCn1c(=S)[nH]c2cc(C(=O)O)ccc2c1=O	-12	-4
O=C(O)Cn1cnc2scc(-c3cccs3)c2c1=O	19	10
COC(=O)CSCc1nc(N)nc(Nc2ccccc2C)n1	4	0
Cc1ccc(C)c(NC(=O)C(NC(C)C)c2ccccc2)c1 (configuration not stated)	8	1
CCN(C(=O)/C=C/c1ccco1)c1nc2c(C)cccc2s1	-15	-1
COc1ccc(OC)c(/C=C/C(=O)N(C)CCOc2ccccc2)c1	6	-6
c1ccc(-c2nc(COc3ncnc4sccc34)cs2)cc1	11	0
Cc1cc(-n2c(C)cc(/C=C/C(=O)N3CCN(Cc4cccs4)CC3)c2C)no1	9	4
N#CC(C#N)=C1C=CN(c2ccc(Br)cc2)C=C1	16	17
CC(C)n1nc(C(=O)OCc2cc(=O)n3c4c(sc3n2)CCCC4)c2ccccc2c1=O	12	2

In a second layout: entries from further up.
| canonical_smiles | BmaI1 | BmaI1 counterscreen |
| --- | --- | --- |
| c1ccc(-c2nc(COc3ncnc4sccc34)cs2)cc1 | 11 | 0 |
| Cc1cc(-n2c(C)cc(/C=C/C(=O)N3CCN(Cc4cccs4)CC3)c2C)no1 | 9 | 4 |
| N#CC(C#N)=C1C=CN(c2ccc(Br)cc2)C=C1 | 16 | 17 |
| CC(C)n1nc(C(=O)OCc2cc(=O)n3c4c(sc3n2)CCCC4)c2ccccc2c1=O | 12 | 2 |

Following part
SMILES	BmaI1	BmaI1 counterscreen
N#CCCn1cc(C(=O)CN2C(=O)NC(c3ccccc3)(c3ccccc3)C2=O)c2ccccc21	8	5
Cc1ccc(COc2ccc3c(c2)OCO3)cc1	22	12
Cc1cc(Cl)ccc1OC(C)C(=O)OCC(=O)Nc1ccc2[nH]c(=O)[nH]c2c1 (configuration not stated)	3	10
O=C(CSc1ccc2c(c1)OCCO2)NC1CCS(=O)(=O)C1 (configuration not stated)	20	5
Nc1cc(=O)[nH]c(SC(C(=O)N2CCCC2)c2ccccc2)n1 (configuration not stated)	-2	-4
CN(C(=O)COC(=O)c1ccc(Cl)c(S(N)(=O)=O)c1)C1CCS(=O)(=O)C1 (configuration not stated)	11	-1
CC(=O)CCCCn1cnc2c1c(=O)n(C)c(=O)n2C	5	8
O=C(Cc1c(Cl)cccc1Cl)NC1CCC(O)CC1 (configuration not stated)	10	4
CC(Oc1ccccc1)C(=O)N/N=C/c1ccccc1 (configuration not stated)	16	13
COC(=O)c1c(C)[nH]c(=O)[nH]c1=S	-6	2
CC(C)(C)c1ccc(OCCCC(=O)Oc2ccc(-c3nnco3)cc2)cc1	6	3
O=C1CCCCCN1Cc1nnc(SCCN2C(=O)c3ccccc3C2=O)o1	21	6
COc1ccc(CN(C)c2nc(C(F)(F)F)nc3ccccc23)c(OC)c1	23	7
COc1ccc(C(=O)C(C)Sc2nnc(-c3ccccc3OC)n2C)cc1 (configuration not stated)	1	-5
O=C1c2c(O)cc(O)cc2O[C@H](c2ccc(O)c(O)c2)[C@H]1O	65	20

Quoted from the listing.
Entry for `COc1ccc(CN(C)c2nc(C(F)(F)F)nc3ccccc23)c(OC)c1` in BmaI1: 23
Entry for `COc1ccc(OC)c(/C=c2\s/c(=C(/C#N)c3nnc4n3CCCCC4)n(-c3ccccc3)c2=O)c1` in BmaI1: 9
Entry for `CC(=O)N1CCN(C(=O)CSc2ncnc3ccccc23)CC1` in BmaI1: 11
Entry for `CC1=CC(=O)C(C(=O)/C=C/c2ccc(N3CCCCC3)cc2)C(=O)O1` (configuration not stated) in BmaI1 counterscreen: -10
Entry for `N#CC(C#N)=C1C=CN(c2ccc(Br)cc2)C=C1` in BmaI1 counterscreen: 17

Next part.
SMILES	BmaI1	BmaI1 counterscreen
CCSc1nnc(NC(=O)C2CC(=O)N(c3ccccc3OC)C2)s1 (configuration not stated)	2	4
N#Cc1ccccc1Sc1ccccc1C(=O)N1CCN(CC(=O)N2CCCC2)CC1	0	-5
NC(=O)C1CCCN(C(=O)C(c2ccccc2)c2ccccc2)C1 (configuration not stated)	-16	2
O=C1C(c2c(O)[nH]c3ccccc23)=Nc2ccccc21	2	0
CC(N)(Cc1ccc(O)c(O)c1)C(=O)O (configuration not stated)	-17	-46
O=C(CC1SC(=NC2CC2)NC1=O)Nc1ccc(Oc2ccccc2)cc1 (configuration not stated)	8	8
NC1=NC(=O)C(c2ccccc2)O1 (configuration not stated)	2	12
O=C(NNC1=NCCC1)C1CC1	0	3
COc1ccccc1/C=N/n1cnnc1SCC(C)(C)NS(=O)(=O)c1ccc(C)cc1	14	-2
CCN=c1sc(C(=O)Nc2ccccc2)c(C)n1CC	-1	4
CC(C)NC(=O)CSc1nc(-c2ccccc2)cn1N	12	10
Cc1nn(-c2ccccc2)c(Cl)c1C(=O)OCC(=O)N1CCCC1	18	10
Cc1cc(C(=O)OCC(=O)N2CC3(C)CC2CC(C)(C)C3)c(C)o1 (configuration not stated)	0	-2
Cc1ccc(OCc2nc(SCC(=O)NCC(F)(F)F)n[nH]2)cc1	2	0
Cc1noc(C)c1COC(=O)CC1Sc2ccccc2NC1=O (configuration not stated)	14	11
O=C1c2ccccc2C(=O)N1Cc1ncc(-c2ccccc2)o1	22	8

Part of the list above in order of number of heavy atoms, ascending.
SMILES	BmaI1	BmaI1 counterscreen
NC1=NC(=O)C(c2ccccc2)O1 (configuration not stated)	2	12
CC(N)(Cc1ccc(O)c(O)c1)C(=O)O (configuration not stated)	-17	-46
CC(C)NC(=O)CSc1nc(-c2ccccc2)cn1N	12	10
NC(=O)C1CCCN(C(=O)C(c2ccccc2)c2ccccc2)C1 (configuration not stated)	-16	2
CCSc1nnc(NC(=O)C2CC(=O)N(c3ccccc3OC)C2)s1 (configuration not stated)	2	4
N#Cc1ccccc1Sc1ccccc1C(=O)N1CCN(CC(=O)N2CCCC2)CC1	0	-5
